Screens as filed in PubChem BioAssay.
SARS PLpro yeast – SARS-CoV PLP inhibition in yeast; Potency, µM (series often up to 32.9 µM), for inactives: top-dose activity, positive = growth rescue; actives 0.19% (n = 330,000); S. cerevisiae expressing SARS-CoV PLpro, growth rescue; control for the full effect not named in the record; AID 485353; active means well fitted rising curve with a large enough effect; inconclusive means small, poorly fitted or top-dose-only effect; inactive means no such curve, though single readings can be large or run the other way; note: 0% is about no effect; nearly all actives have a fitted effect of over 55% in size; growth read by luminescence after 48 h
StopGo reporter – FMDV 2A StopGo reporter, luciferase signal; human cells with a luciferase reporter of 2A StopGo recoding; control for the full effect not named in the record; AID 1159524; actives 1.2% (n = 410,000); Potency, µM (titrated, usually from 57.9 µM), for inactives: at the highest dose signal change, negative = less light; active = well fitted falling curve with a large enough effect; inconclusive = small, poorly fitted or top-dose-only effect; inactive = no such curve, though single readings can be large or run the other way; tested in HEK293T cells; note: % is set by controls: 0 for no effect and ±100 for the full control effect; nearly all actives have a fitted effect of over 45% in size; luciferase light after 4 h
LASV entry inh – inhibitors of Lassa virus binding or cell entry. Lassa virus pseudotype entry inhibition, cell reporter; control for the full effect not named in the record. Potency, µM (titrated, usually from 37.9 µM), inactives show at the top dose activity change, negative = inhibition, most hits filed as inhibitors. actives 1.2% (n = 300,000); active means well fitted inhibition curve with a large enough effect; inconclusive means small, poorly fitted or top-dose-only effect, or effect the other way; inactive means flat fitted curve, though single readings scatter; tested in HEK293 cells; note: % is set by controls: 0 for no effect and ±100 for the full control effect; nearly all actives have a fitted effect of over 50% in size; luciferase read-out
RE007 growth inh – less growth of the S. pombe RE007 Vpr strain | S. pombe RE007 Vpr strain, BacTiter-Glo ATP luminescence, 24 h; control for the full effect not named in the record | Potency, µM (titrated, usually from 92.2 µM), for the others: at the highest dose activity change, negative = less growth | actives 0.21% (n = 360,000); active = well fitted falling curve with a large enough effect; inconclusive = small, poorly fitted or top-dose-only effect; inactive = no such curve, though single readings can be large or run the other way;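 note: % is set by controls: 0 for no effect and ±100 for the full control effect; nearly all actives have a fitted effect of over 50% in size; the assay follows cell death caused by Vpr and the record does not say whether a fall means rescue or toxicity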
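Fission yeast strain RE007, carrying one chromosomally integrated HIV-1 vpr copy, was seeded at OD 0.01 in PMG+AL medium with 23 nL pinned compound. After 24 h at 30 °C and 99% humidity, viability was read by BacTiter-Glo luminescence.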
NS1 inh – inhibitors of influenza NS1 protein function. S. cerevisiae slowed by influenza A NS1, growth recovery by OD600. Potency, µM (titrated, usually from 46.1 µM), without a hit: at the top dose activity, positive = more growth. actives 0.4% (n = 270,000); active means well fitted rising curve with a large enough effect; inconclusive means small, poorly fitted or top-dose-only effect; inactive means no such curve, though single readings can be large or run the other way; note: nearly all actives have a fitted effect of over 50% in size
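A cell-based growth assay was used: compounds that relieve NS1-induced slow growth of budding yeast raise OD600. Assay medium was yeast nitrogen base with ammonium sulphate and -URA supplement, pH 6.0, with 2% galactose.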
Cruzain inh Det – blocks cruzain activity in presence of Triton detergent | P25779 | AID 1478 | Potency, µM, inactives show max response, negative = inhibition, usual class: inhibitors | actives 0.43% (n = 200,000) | purified cruzain, Z-FR-AMC fluorescence, 0.01% Triton;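 note: plate controls were neutral wells for no effect and buffer without enzyme for full effect; nearly all actives have a fitted effect of over 40% in size; top concentration of the series not given in the record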
Target sequence (P25779 123-467 limits assumed): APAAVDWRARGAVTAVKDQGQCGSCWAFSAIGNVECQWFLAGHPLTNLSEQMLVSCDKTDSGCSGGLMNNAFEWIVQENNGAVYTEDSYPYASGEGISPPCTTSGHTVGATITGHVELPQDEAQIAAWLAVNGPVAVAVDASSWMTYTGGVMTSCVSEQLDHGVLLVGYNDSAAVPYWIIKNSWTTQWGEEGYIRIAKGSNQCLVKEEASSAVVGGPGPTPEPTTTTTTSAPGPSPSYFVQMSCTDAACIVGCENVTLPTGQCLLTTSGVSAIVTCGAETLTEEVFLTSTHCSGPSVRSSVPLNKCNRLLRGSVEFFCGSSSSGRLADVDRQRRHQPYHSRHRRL
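Sodium acetate buffer (100 mM, pH 5.5) containing 5 mM DTT and 0.01% Triton X-100 hosted 1.5 nM cruzain and test compound for 15 min at room temperature. Cleavage of 2 uM Z-FR-AMC was then tracked by fluorescence.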
Cruzain noTriton – inhibitors of Trypanosoma cruzi cruzain without detergent; Potency, µM, for the others: max response, negative = inhibition, hits mostly inhibitors; purified cruzain, Z-FR-AMC fluorescence, no detergent; actives 2.3% (n = 200,000);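 note: plate controls were enzyme without inhibitor for no effect and buffer without enzyme for full effect; nearly all actives have a fitted effect of over 40% in size; top concentration of the series not given in the record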
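Purified cruzain at 1.5 nM, pre-incubated 15 min with compound at room temperature in 100 mM sodium acetate pH 5.5, 5 mM DTT, 0.00005% Triton X-100. Reaction started with 2 uM Z-FR-AMC; AMC fluorescence increase over 60 s gives rate.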
Marburg entry inh – inhibitors of Marburg virus binding or cell entry; Marburg virus pseudotyped entry inhibition, cell reporter; control for the full effect not named in the record; about a third of the inactives were read at about 46 µM; actives 1.8% (n = 300,000); AID 540276; Potency, µM (titrated, usually from 37.8 µM), for the others: top-dose activity change, negative = inhibition, hits mostly inhibitors; active = well fitted inhibition curve with a large enough effect; inconclusive = small, poorly fitted or top-dose-only effect, or effect the other way; inactive = flat fitted curve, though single readings scatter; tested in HEK293 cells; about a fifth of its hits are not listed in these tables; note: % is set by controls: 0 for no effect and ±100 for the full control effect; luciferase read-out
* marks the source's active call; other numbers are inactive results; ? = inconclusive; / = no result given; & = joins results of further samples; [ ] = remark or other dose. Unless noted, calls come from the whole dose curve; as a rule, active = well fitted curve in the direction sought with a large enough effect; inconclusive = small, poorly fitted or top-dose-only effect, or another doubt; inactive = no such curve, though single readings can be large; an effect the other way counts as inactive or inconclusive. Potency is the fitted concentration of half-maximal effect.

SMILES	SARS PLpro yeast	StopGo reporter	LASV entry inh	RE007 growth inh	NS1 inh	Cruzain inh Det	Cruzain noTriton	Marburg entry inh
CCOC(=O)C(NCc1ccc(OC)cc1)(NC(C)=O)C(F)(F)F (stereo not given)	-1%	-20%	0%	-8%	-3%	-0.7%	7%	?
CCOC(=O)c1nsnc1NCCCl	-2%	-3%	-1%	-15%	2%	/	/	4%[46.1 µM]
CC(C)c1ccc(C2C3CSCC=C3C(C#N)=C(N)C2(C#N)C#N)cc1 (stereo not given)	-33%	/	/	/	5%	-8.7%	?	/
Cn1c(=O)c2c(nc3n2CCS3)n(C)c1=O	-1%	-15%	/	7%	0%	/	/	/
FC(F)(F)C1=Nc2cccc3cccc(c23)N1	0%	16µM*	?	-3%	/	/	/	4%
COc1cc(OC)c(OC)cc1C=O	1%	-12%&0%	/	-16%	/	3.2%&-0.6%	-4%&-8%	/
COc1ccc(C(=O)/C=C/N(C)C)cc1OC	-15%	4%	-8%	?	-69%	-6.1%	0%	-3%
CCOC(=O)C1=C(C)NC(=O)NC1c1ccc(OC)c(Cl)c1 (stereo not given)	-3%	-27%	13%	-4%	-4%	1.9%	-1%	-4%
OCC1(Cc2ccc(F)cc2F)CCCN(Cc2ccc(Cl)cc2)C1 (stereo not given)	?	-11%	/	-23%	-7%	/	/	/
CC1CCCN(C(=O)c2cc(S(=O)(=O)N3CCCCC3)c[nH]2)C1 (stereo not given)	6%	16%	/	-1%	4%	/	/	/
O=C(CCc1nnc2ccc(NCc3ccccc3Cl)nn12)N1CCC2(CC1)OCCO2	-1%	-11%	/	-8%	5%	/	/	/
O=C(Nc1cccc(Cl)c1Cl)Nn1cnnc1	-1%	-21%	/	1%	-4%	/	/	/
O=C(CSc1nnc(NC(=O)Nc2ccccc2)s1)Nc1cccc(F)c1	/	17%	27%[46.1 µM]	/	/	-1.4%	?	/
COc1cccc(-n2c(=O)[nH]cc(C(=O)Nc3ccc(NC(C)=O)cc3)c2=O)c1	-1%	-18%	/	5%	1%	-1.7%	-11%	/
O=C(NN1C(=O)C2C3C=CC(O3)C2C1=O)c1cccc(O)c1 (stereo not given)	19%	-5%	6%	3%	-6%	-2.5%	-9%	-15%
COc1ccccc1CCNC(=O)C(=O)NCC(c1cccs1)S(=O)(=O)c1ccccc1 (stereo not given)	/	?	-7%[46.1 µM]	/	/	-2.6%	-3%	/
CCOC(=O)CC(=O)CSc1nc2cc(C)ccc2cc1C	-4%	-13%	5%	-15%	20%	-0.5%	6%	9%
C=CCN(c1ccccc1)S(=O)(=O)c1cccc(C(=O)N(CC)CC(=O)Nc2c(F)cccc2F)c1	1%	2%	18µM*	5%	-14%	/	/	?
CC(CN(C)Cc1ccccc1)OC(=O)c1ccc(F)cc1 (stereo not given)	-3%	-27%	8%	-12%	-2%	-0.9%	-5%	5%
CN1CCN(c2ccc(NC(=O)c3ccc(Br)o3)cc2)CC1	13%	34%[activator]	/	-3%	10%	/	/	/
COc1ccc2ccccc2c1/C=N/NC(=O)c1sc(N)c(C#N)c1C	?	1%	?	-15%	6%	-4.9%	-28%	-9%
N=c1c2c(ncn1CCCO)Oc1ccc3ccccc3c1C2c1ccccc1 (stereo not given)	-1%	-18%	-27%	2%	-2%	/	/	?
CC1CC(C)CN(CCCNC(=O)c2cn(C)c3ccc(S(=O)(=O)N4CCCC4)cc3c2=O)C1 (stereo not given)	0%	41%[activator]	-13%	-24%	10%&-6%	/	/	-4%&-4%
CCC(=O)OCC(=O)Nc1cc(S(=O)(=O)N(C)C)ccc1Cl	0%	-8%	5%	-2%	7%	/	/	6%[46.1 µM]
CCCCCCC(=O)N(O)C1CC(=O)N(c2ccc(Cl)cc2)C1=O (stereo not given)	-7%	7%	0%	4µM*	-67%	/	/	-7%[46.1 µM]
COc1ccc(CNC(=O)Cn2ncn3c(cc4ccccc43)c2=O)cc1	0%	-18%	-20%	8%	3%	/	/	19%[46.1 µM]
CCOC(=O)Nc1sc(C(=O)N(CC)CC)c(C)c1C(=O)OCC	-1%	12%	-14%	-11%	-36%	-0.6%	3%	12%
O=C(Nc1ccc2oc(-c3ccccc3F)nc2c1)c1ccccc1Cl	/	23%	15%[46.1 µM]	/	/	-5.8%	-8%	/
CCNC(=S)N1CCCC(C(N)=O)C1 (stereo not given)	0%	-12%	11%	0%	/	/	/	?
COCCN(C(=O)COc1ccccc1C#N)c1c(N)n(Cc2ccccc2)c(=O)[nH]c1=O	1%	-15%	-1%	1%	/	/	/	-19%[46.1 µM]
Cc1cccc(C)c1NS(=O)(=O)c1cc2c3c(c1)CCN3C(=O)CC2	2%	-5%	8%	7%	/	/	/	-24%
COc1cc(/C=N/Nc2ccc(Cl)cc2)ccc1OC(=O)c1cccs1	-29%	16%	11%	15%	-19%	-3.0%	7.9µM*	3%
Cn1c(N)c(C(=O)COC(=O)/C=C/c2cccc(Cl)c2)c(=O)n(C)c1=O	-2%	-5%	8%	2%	/	/	/	-3%
Cn1c(=O)n(CCOc2ccccc2Cl)c2ccccc21	-8%	32%[activator]	1%	-18%	-53%	-3.3%	?	?
Cc1ccc2c(c1)nnn2C1CCN(S(=O)(=O)c2cccc(S(=O)(=O)N(C)C)c2)CC1	0%	18µM*	?	14%	8%	-1.0%	-2%	?
Cc1ccc(OCC(=O)Nc2oc(-c3ccccc3)c(-c3ccccc3)c2C#N)cc1	/	?	-23%	0%	/	/	/	-23%[46.1 µM]
COc1ccc(C2Nc3ccccc3C(=O)N2c2ccc(C)cc2)cc1Cn1nc(C)c([N+](=O)[O-])c1C (stereo not given)	2%	/	-17%	0%	20%	-4.9%	?	?
CCCN1CCC(NC(=O)CC2C(=O)NCCN2Cc2ccccc2C)CC1 (stereo not given)	0%	20%	/	3%	1%	/	/	/
O=C(CSc1ccccc1F)NCCN1C(=O)CSC1=O	5%	-8%	-21%	-17%	/	/	/	?
O=C(Cc1ccccc1)N1CCN(c2ncccn2)CC1	-5%	5%	-7%[46.1 µM]	2%	/	/	/	13%[46.1 µM]
Cc1ccc(-c2cc(C(=O)Nc3ccccc3C)c3ccccc3n2)o1	-71%	-10%	-14%	-17%	-22%	-11%	13%	-24%[46.1 µM]
COc1ccc(N=Cc2c(O)n(C)c(=O)[nH]c2=O)cc1	1%	32%[activator]	/	-14%	6%	/	/	/
COC(=O)c1ccc2c(=O)[nH]c(CCl)nc2c1	0%	?	?	39%	/	/	/	13µM*
O=C(CN1CCOCC1)Nc1ccc(Cl)c(Cl)c1	1%	-3%	/	-3%	5%	/	/	/
COc1ccc(-c2ccc3c(N)c(C(=O)NC(C)C)sc3n2)cc1OC	-1%	-8%	-4%	-2%	1%	/	/	-4%[14.2 µM]
COc1ccc(Nc2ncnc3onc(C)c23)c(OC)c1	/	-13%	?	/	/	0.3%	2%	/
CCOC(=O)/C(=N/Nc1ccc(OC)cc1)Sc1nnc(CCc2ccccc2)n1-c1ccccc1	9%	41%[activator]	?	-4%	27%	-11%	-2%	33%
CCCCc1cc(=O)oc2cc(OCC(=O)NCCN3CCOCC3)ccc12	3%	-7%	/	9%	-4%	/	/	/
COCCn1c(C)cc(/C=C(\C#N)C(=O)OCC(=O)N(C)c2c(N)n(Cc3ccccc3)c(=O)[nH]c2=O)c1C	-2%	25%	9%	-12%	/	/	/	0%
CO/N=C(/CNC(=O)c1ccccc1Cl)c1ccc(Cl)cc1	-2%	4%	-12%	22%	-26%	3.7%	1%	0%
CNS(=O)(=O)c1ccc(NC(=O)C2CC(=O)N(c3ccc(Cl)cc3)C2)cc1 (stereo not given)	-2%	-3%	?	6%	/	/	/	0%[14.2 µM]
CC(C)C(=O)Nc1cccc(-c2nc3ccccc3c(=O)o2)c1	5%	-22%	-23%	4%	12%	-3.5%	-8%	-17%
Cc1cc(NC(=O)/C(C#N)=C\c2ccc(-c3ccc(SC(F)F)cc3)o2)n(-c2ccccc2)n1	/	-21%	-20%[46.1 µM]	33%	/	/	/	3%[46.1 µM]
CCCCN(Cc1ccccc1)C(=O)C1CCN(Cc2sccc2C)CC1	2%	-4%	?	-2%	-9%	0.6%	-2%	?
CCC(=O)Nc1ccc(C)cc1-c1nc2ccccc2n(CC(=O)Nc2ccccc2Cl)c1=O	/	?	24%[46.1 µM]	/	/	-7.9%	-6%	24%[46.1 µM]
COc1ccccc1CC(NC(C)=O)C(=O)N1CCN(C(=O)c2cccs2)CC1 (stereo not given)	2%	-17%	12%	0%	2%	0.9%	16%	2%
Cc1ccc(S(=O)(=O)N2CCOCC2)cc1NC(=O)COC(=O)c1ccc2c(c1)OCCO2	0%	-7%	9%[46.1 µM]	4%	/	/	/	2%[46.1 µM]
CC(=O)N1CSCC1C(=O)N1CCN(c2ccc(N3CCOCC3)nn2)CC1 (stereo not given)	-5%	7%	/	-7%	-2%	3.1%	-10%	/
COC(=O)c1sc2cccc(F)c2c1S(=O)(=O)N1CCN(c2cccc(C)c2)C(C)C1 (stereo not given)	/	?	?	/	/	-5.0%	-25%	/
CC(C)CCNC(=O)NC(=O)COC(=O)/C=C/c1cc(Br)ccc1F	2%	-8%	8%	-5%	/	/	/	?
(further entries)
SMILES	SARS PLpro yeast	StopGo reporter	LASV entry inh	RE007 growth inh	NS1 inh	Cruzain inh Det	Cruzain noTriton	Marburg entry inh
CCOc1ccc(C(=O)Nc2c(C(=O)N3CCN(c4ccccc4F)CC3)oc3ccccc23)cc1	/	42%[activator]	0%[46.1 µM]	/	/	-1.0%	8%	/
C[N+](C)(C)CCOC(=O)CBr	/	-5%&-13%	-12%	17%[18.4 µM]	-2%	-5.5%	4%	6%&6%&6%&12%&6%&6%
CCC(=O)N1CCc2cc(CNC(=O)Nc3cc(C)ccc3C)ccc21	/	5%	-6%[46.1 µM]	/	/	-1.1%	?	/
Cc1cc(O)c(C(C)C)cc1NC(=O)c1cccc(Cl)c1	6%	-26%	?	-3%[3.69 µM]	-34%	-1.2%	4%	-1%
CCNc1nc(OC)nc(Oc2ccc(=O)[nH]n2)n1	/	-11%	2%[46.1 µM]	/	/	0.9%	3%	-16%[46.1 µM]
CSCCC(NC(N)=O)C(=O)NCc1ccccc1Cl (stereo not given)	1%	6%	-16%	32%	-3%	1.0%	7%	-10%
